# Mtb hypoxia rep = reduces hypoxia-regulated biosensor signal in M. tuberculosis; M. tuberculosis hypoxia-regulated fluorescent reporter, fluorescence; fluorescence inhibition, % (concentration not given with the values); 300,000 compounds, 0.1% hits;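 active = 35 to 45% if threefold the growth effect, above 45% if 1.5-fold the growth effect; inactive = the rest, general growth blockers included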;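 also: wells of about 50 µL received 100 nL stock; 0% = vehicle wells and 100% = reference inhibitor wells; whole bacteria with a GFP reporter of the hypoxia response; strong numbers were not always called active; many hits fall short of the cut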
# RN4220 kill = kills Staphylococcus aureus RN4220; S. aureus RN4220 growth, OD600, 16 h; inhibition, % (test concentration not listed); 330,000 compounds, 0.33% hits;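 active = z-score of -3 or lower and OD600 up to 0.18 on both plates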;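 also: plate controls were untreated cells for no effect and reference antibiotic for full effect; stock transfer was 100 nL into about 80 µL; one replicate is shown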
# Sa ugtP lethal = kills S. aureus RN4220 lacking UgtP; growth inhibition, % (concentration not given with the values); S. aureus RN4220 ugtP deletion, OD600 growth, 16 h; some inactives read as strong as hits; 330,000 compounds, 0.54% hits; AID 1259309;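 active = z-score under -3 and OD600 up to 0.15 on both plates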;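 also: plate controls were untreated wells for no effect and antibiotic for full effect; wells of about 80 µL received 100 nL stock; the first replicate is given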
# PrP UTR inh = suppresses PrP 5' UTR mRNA reporter expression; cell-based PrP 5' UTR mRNA reporter, plate reader; inhibition, % (test concentration not listed); 340,000 compounds, 0.35% hits;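 active = every replicate at 50% or more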;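 also: 0 = median of the neutral control wells; tested in H4 reporter cells; numbers are from one replicate; inactives centre near -14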
# Autofluor counter = counter-screen for toxin protease inhibitors: compound fluorescence; compound autofluorescence counterscreen, microsphere flow cytometry; hits give high values; AID 624483; fluorescence intensity (test concentration not listed); 360,000 compounds, 3.1% hits;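 active = at least 3 SD above the mean of all compounds, about 16000 in these data; inconclusive = too few beads counted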;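 also: 100 nL of 1 mM stock went into each well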
# BJeLR viability = BJeLR cell viability loss | 300,000 compounds, 0.17% hits | BJeLR (HRASV12) viability, CellTiter-Glo ATP luminescence, 48 h; reference of the scale not given here | AID 1554 | inhibition, % (concentration not given with the values);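 active = replicate mean above 50%; inconclusive = above 50% but judged a plate artefact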;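 also: 50 nL library stock added to about 25 µL; numbers are from one replicate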
# Mtb hypoxia rep growth = recorded beside Mtb hypoxia rep, whose call it bears; growth inhibition, %; measured here: M. tuberculosis growth (absorbance);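 0% = vehicle and 100% = reference antibiotic; read after six days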
# An asterisk follows results filed as active; u = inconclusive; x = no result given. An unsorted share of the library; any-hit rate near 3.9%.
SMILES,Mtb hypoxia rep,Mtb hypoxia rep growth,RN4220 kill,Sa ugtP lethal,PrP UTR inh,Autofluor counter,BJeLR viability
CCOC(=O)C1CCCCN1C(=O)c1oc2c(Cl)cc(C)cc2c1C (stereo not drawn),-1.6,12.2,3.9,-26.9,2.4,5606,-3.5
Cc1ccc(SC(CC(=O)c2ccc(C)cc2)C(=O)O)cc1 (stereo not drawn),3.9,-3.2,-10.8,-3.2,-9.1,2254,1.5
COC(=O)c1cc(S(=O)(=O)N2CCC(C)CC2)ccc1F,5.4,10.8,1.5,3.9,0.8,22718*,4.8
COc1ccc(C)cc1S(=O)(=O)N(C)CC(=O)N1CCCC1,-1.3,1.0,6.4,1.6,-21.4,3830,-4.8
CCN(CCCNC(=O)C1CCN(S(=O)(=O)c2cnc[nH]2)CC1)c1ccccc1,7.2,5.9,-0.4,0.2,-6.7,5099,5.2
CCOc1ccc(N(C(=O)c2snc(C(N)=O)c2N)C(C(=O)NCC2CCCO2)c2ccco2)cc1 (stereo not drawn),-9.0,-6.8,-1.6,-1.7,-8.8,3774,1.4
CCNS(=O)(=O)c1cc(-c2nnc(OC)c3ccccc23)ccc1C,10.7,6.5,-1.6,0.8,-22.4,3750,-3.5
CCCC(C)NC(=O)Cn1c(=O)c2c(ncn2CCC(C)C)n(Cc2ccccc2)c1=O (stereo not drawn),-2.9,3.6,0.4,-1.8,-12.5,3469,-0.5
CCOC(=O)c1ccc(NC2c3ncccc3C(=O)N2Cc2ccc(F)cc2)cc1 (stereo not drawn),-8.0,10.2,-2.5,-8.9,-12.0,24047*,x
CCOC(=O)CCC(=O)Nc1ccc(S(=O)(=O)N2CCc3ccccc32)cc1,3.4,9.4,4.9,-2.3,-20.4,3842,5.6
Cc1csc(C(=O)O)c1NC(=O)c1ccc(F)cc1,6.5,7.0,2.8,6.6,-18.0,3044,10.6
COc1ccc(CCN(C)S(=O)(=O)c2cn(C)c(=O)n(C)c2=O)cc1OC,-3.6,2.8,-0.8,-5.4,-14.3,6772,x
O=C(CSc1ccc2nnc(CCNC(=O)c3ccc(F)cc3)n2n1)NCC1CCCO1 (stereo not drawn),5.0,8.4,3.3,7.8,-5.3,5325,4.2
CS(=O)(=O)N1CCc2cc(S(=O)(=O)Nc3ccc4c(c3)OCCO4)ccc21,15.7,2.7,9.3,-1.8,-28.9,10580,10.7
O=C(C(c1ccccc1)c1ccccc1)N1CC[C@@]2(O)CCCC[C@H]2C1,-1.5,-5.0,2.8,18.6,-35.8,4782,-3.8
O=C(O)COc1ccc2c(c1)OCCO2,2.6,5.7,-4.9,-0.9,-11.9,3383,-2.7
CNC(=O)c1sccc1-n1cccc1,9.9,-5.5,-0.5,10.0,-14.7,3540,-12.8
O=C(CN(CCc1ccccc1)C(=O)CNS(=O)(=O)c1ccc(F)cc1)NCC1CCCO1 (stereo not drawn),x,x,0.8,2.1,-12.0,2705,12.9
O=C(Nc1ccc(F)cc1)N1CCCCCC1,14.2,7.8,2.0,0.8,-28.8,5338,4.7
Oc1c(N=NC(=S)Nc2ccccc2F)c2ccccc2n1Cc1ccccc1F,1.6,-2.8,10.7,-11.0,4.3,4691,4.8
COc1cccc(-c2nn(C)c3sc(C(=O)NCc4ccc5c(c4)OCO5)cc23)c1,-0.9,0.8,-1.2,12.6,-12.8,5521,17.6
Cn1c(SCC(=O)NC2CCCCC2)nnc1-c1cc2cc(Cl)ccc2o1,-0.3,4.8,-1.3,-1.1,-37.9,3721,-1.1
COc1cccc(/C=N/NC(=O)c2cnccn2)c1,x,x,x,x,-15.3,2028,-3.0
CCCCN(CCCC)C(=O)/C=C/c1cccc([N+](=O)[O-])c1,x,x,-1.3,-15.6,-21.6,2694,-5.7
Oc1ccc(Cc2ccc(Cl)cc2)c(O)c1,x,x,x,x,-10.2,4668,-9.8
CN1CCN(/N=C/c2ccc(C#N)cc2)CC1,x,x,x,x,-8.6,4699,-3.0
Nc1nnnn1CC(=O)N/N=C/c1cccs1,x,x,x,x,-27.2,3723,4.6
CC(=O)C(C)n1c(CN2CCN(C(=O)c3ccco3)CC2)nc2c1c(=O)n(C)c(=O)n2C (stereo not drawn),4.2,-6.0,4.7,9.6,-16.9,4461,1.0
COc1ccc(-n2c(=O)[nH]c3c(C(N)=O)nc(C4CCCCC4)nc32)cc1,1.4,3.8,1.8,-26.5,-6.7,3830,1.5
Cn1ncc2c(Nc3ccc(O)cc3)nc(Cl)nc21,12.0,3.1,3.2,7.7,-10.7,3983,-1.0
O=C(COc1ccc(C(=S)N2CCCC2)cc1)Nc1ccccc1C(F)(F)F,x,x,x,x,-39.0,5594,-8.7
O=C(COC(=O)C1CC2C=CC1C2)Nc1cccc(S(=O)(=O)N2CCOCC2)c1 (stereo not drawn),-9.5,2.5,1.0,0.4,-14.0,3565,-9.4
O=[N+]([O-])c1cc([N+](=O)[O-])c(Oc2c(F)cc(F)cc2F)cc1NN1CCCCC1,10.6,10.7,-3.6,2.1,-32.1,3005,13.0
Cc1ccc(C(=O)NCCNC(=O)CN2CCOCC2)cc1,3.6,9.9,-11.4,-3.4,-6.1,3105,-0.8
Cc1ccc(-n2nc3ccc(NC(=O)/C=C/c4ccco4)cc3n2)cc1C,8.0,0.0,-5.2,6.1,x,11248,0.4
CCOc1ncccc1C(=O)OCC(=O)Nc1ccc(-c2nc3ccc(C)cc3s2)cc1,3.9,8.7,4.7,-2.2,-29.6,2628,-2.0
O=C(CSc1nc(C2CC2)nc2ccccc12)Nc1ccccc1Cl,-7.6,-0.8,5.2,6.2,-24.9,3541,-2.7
O=C(NCc1cccc(Cl)c1)c1ccco1,x,x,4.0,1.0,-19.3,22733*,0.5
CCOc1ccc(S(=O)(=O)N2CCC(C(=O)NCC3CCCO3)CC2)cc1Cl (stereo not drawn),0.7,3.1,8.2,-2.1,-19.3,4252,-0.5
CN(CCCNC(=O)c1ccc(/C=N/O)nc1)CCCN(C)Cc1ccccc1,x,x,x,x,-27.3,8897,-7.6
CC(C)COC(=O)C(N)C(C(=O)OCC(C)C)c1ccccc1 (stereo not drawn),2.7,7.2,3.5,0.6,-11.9,2912,13.1
O=C(C(=O)N1CCOCC1)c1cn(Cc2c(F)cccc2Cl)c2ccccc12,-9.8,2.0,0.3,5.4,-17.0,4349,-7.9
CCc1cccc(C)c1NC(=O)Nc1ccc2c(c1)OCO2,6.3,9.2,3.0,-1.9,-13.6,2625,-3.8
Cc1ccc(C)c(NC(=O)CCC(=O)NN=C2CCCC2)c1,3.4,4.4,-0.6,5.3,-19.3,4849,x
Cc1ccc(S(=O)(=O)c2nc(S(C)(=O)=O)sc2NCC2CCCO2)cc1 (stereo not drawn),1.9,9.2,0.1,-4.1,-0.9,3337,-5.8
CC(=O)c1ccc[n+](CC(=O)NC(C)c2ccccc2)c1 (stereo not drawn),-10.5,-11.1,2.0,6.3,x,3058,-16.9
Cc1ccc(NC(=O)C2CCCN2C(=O)OCc2ccccc2)c(O)c1 (stereo not drawn),3.6,3.4,3.8,7.7,-12.9,5583,-3.6
O=C(NNc1ncc(C(F)(F)F)cc1Cl)c1c(Cl)cccc1Cl,0.2,3.5,8.5,10.6,-27.0,6054,-0.5
COC(=O)C1=C(NC(=O)c2ccc(Br)cc2)CCS1,4.1,1.8,6.9,3.6,-31.5,4573,-7.2
CCCCCSc1nnc(N)s1,6.6,-1.7,4.6,7.6,-28.8,4845,-6.4
COCc1cc(C)nc2sc(C(=O)NCCO)c(-n3cccc3)c12,1.3,3.7,1.4,2.4,-3.0,2672,-11.2
Cc1cc(NC(=O)CN2C(=O)C3CC=CCC3C2=O)no1 (stereo not drawn),3.2,2.2,1.9,0.3,-13.4,8484,-7.8
COC(=O)c1cc2c(ccn2C)n1C,-0.1,-1.5,8.3,7.1,-18.9,4198,7.7
COC(=O)[C@]1(C)CCC[C@@]2(C)C3CC[C@@]4(C)C[C@]3(CCC21)CC(=O)N4C (stereo partly drawn),3.0,7.7,15.9,17.9,-0.3,2977,x
Cc1cc(N)ccc1NC(=O)CN1CCOCC1,5.2,4.5,1.3,7.0,-18.6,4185,9.4
O=C(NCc1ccc(Cl)cc1)c1ccccc1Oc1ccccc1,x,x,7.7,0.2,-7.8,3524,-7.1
CCn1cc(Cl)c(C(=O)Nc2ccc3c(c2)OCCO3)n1,10.3,3.9,0.6,-1.8,-60.3,3658,-4.9
COc1cc(/C=C/C(=O)OCC(=O)N2CCC(C)CC2)ccc1O,3.4,-8.9,-0.1,2.9,-14.9,5292,7.9
C=CCNc1nc(C2(C)CC3(CC(C)(C)OC3=O)C(=O)O2)cs1 (stereo not drawn),10.7,2.8,-16.2,-1.6,-16.3,2865,2.9
Cc1cc(NC(=O)COC(=O)c2oc3c(Cl)cccc3c2C)no1,2.3,0.6,2.2,-4.4,-30.0,8842,-11.2

# (continued)
SMILES,Mtb hypoxia rep,Mtb hypoxia rep growth,RN4220 kill,Sa ugtP lethal,PrP UTR inh,Autofluor counter,BJeLR viability
COc1cccc(Cc2n[nH]c(=S)n2Cc2ccco2)c1,-5.0,6.9,2.8,0.2,-21.9,u,-0.6
N#CCSc1nc2sccc2c(=O)n1-c1ccccc1,13.1,-4.3,4.6,-2.3,-1.2,6368,1.9
CCOC(=O)C1CCN(CCC(=O)Nc2cccc(Cl)c2)CC1,3.3,5.7,5.4,-6.6,-28.7,8693,1.1
CCOC1OC(C(N)=O)=CC(c2ccc(Br)cc2)C1CCCO (stereo not drawn),13.4,5.8,5.2,3.3,x,x,x
COc1ccc(NS(=O)(=O)c2ccc3oc(SC(C)C(N)=O)nc3c2)cc1 (stereo not drawn),-11.9,-2.6,-3.6,-9.3,-12.6,5882,16.3
NC(=O)C1CCN(C(=O)COc2ccc3c4c(c(=O)oc3c2)CCC4)CC1,x,x,-1.1,0.8,-36.6,4996,-8.7
COC(=O)C1=C(c2cccc(Cl)c2)CC2CCC1N2C(=O)N1CCCC1 (stereo not drawn),8.5,5.8,4.8,-5.1,x,x,x
CC(=NCCN1CCCCC1)c1c(O)n(-c2ccc(Cl)cc2)c(=O)[nH]c1=O,1.4,9.0,0.7,3.0,-0.4,24548*,-6.3

# In the list so far, eight contain a furan ring, fused or not.
SMILES,Mtb hypoxia rep,Mtb hypoxia rep growth,RN4220 kill,Sa ugtP lethal,PrP UTR inh,Autofluor counter,BJeLR viability
CCOC(=O)C1CCCCN1C(=O)c1oc2c(Cl)cc(C)cc2c1C (stereo not drawn),-1.6,12.2,3.9,-26.9,2.4,5606,-3.5
CCOc1ccc(N(C(=O)c2snc(C(N)=O)c2N)C(C(=O)NCC2CCCO2)c2ccco2)cc1 (stereo not drawn),-9.0,-6.8,-1.6,-1.7,-8.8,3774,1.4
Cn1c(SCC(=O)NC2CCCCC2)nnc1-c1cc2cc(Cl)ccc2o1,-0.3,4.8,-1.3,-1.1,-37.9,3721,-1.1
CC(=O)C(C)n1c(CN2CCN(C(=O)c3ccco3)CC2)nc2c1c(=O)n(C)c(=O)n2C (stereo not drawn),4.2,-6.0,4.7,9.6,-16.9,4461,1.0
Cc1ccc(-n2nc3ccc(NC(=O)/C=C/c4ccco4)cc3n2)cc1C,8.0,0.0,-5.2,6.1,x,11248,0.4
O=C(NCc1cccc(Cl)c1)c1ccco1,x,x,4.0,1.0,-19.3,22733*,0.5
Cc1cc(NC(=O)COC(=O)c2oc3c(Cl)cccc3c2C)no1,2.3,0.6,2.2,-4.4,-30.0,8842,-11.2
COc1cccc(Cc2n[nH]c(=S)n2Cc2ccco2)c1,-5.0,6.9,2.8,0.2,-21.9,u,-0.6
